# Assay outcomes (PubChem BioAssay)
# Mtb H37Rv = Mycobacterium tuberculosis H37Rv growth inhibition, cell based, confirmatory dose response (AID 1949). most inactive calls were filed without a number and no value below 0 was filed. inhibition, % at 10 µg/mL; hits with a dose series show IC50 in µg/mL. actives 1.6% (n = 100,000);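 active = confirmed in a dose series; inconclusive = about 50% or more but not retested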;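 also: bacteria grown 7 days with compound before Alamar blue readout; 0% = untreated bacteria and 100% = reference antibiotic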
# The depositor's hits bear a star; i = inactive; ? = inconclusive.
SMILES | Mtb H37Rv
NS(=O)(=O)c1ccc(CNC(=S)Nc2ccc(Cl)c(Cl)c2)cc1 | i
CC(C(=O)Oc1ccc(Cl)cc1Cl)N1C(=O)c2ccccc2C1=O (stereo not given) | i
CCCCOc1ccc(C(=O)N2CCCc3ccccc32)cc1 | 6%
O=C(COc1ccc2ccccc2c1Br)Nc1ccccc1F | 4%
Cc1cc(Br)ccc1OCCNCc1ccccc1 | 15%
Cc1oc2cc(OC(=O)N3CCOCC3)ccc2c(=O)c1Oc1ccccc1Br | i
COc1ccc(-c2cc(C(F)(F)F)n3nc(C(=O)N(C)Cc4cnn(C)c4C)cc3n2)cc1OC | i
CCOC(=O)c1ccc(CSc2nc(C)cc(COC)c2C#N)cc1 | i
CCn1c(SCC(=O)Nc2ccc(Br)cc2C)nnc1C(NC(=O)c1ccccc1Cl)C(C)C (stereo not given) | i
CCCCNCCCCCCOc1ccccc1F | i
CCOc1cc(S(=O)(=O)n2ccnc2)ccc1Cl | i
Cc1cc(Cl)ccc1NC(=O)CCC1CCCCC1 | i
C=CCNC(=S)NCc1ccccc1OC | i
O=C(Cc1ccc(Br)cc1)Nc1ccccc1C(=O)O | 7%
CCOc1ccc(S(=O)(=O)Nc2ccc3oc(C)c(C(=O)OC)c3c2)cc1 | 4%
Cc1ccccc1C(=O)N1CCN(c2ncccn2)CC1 | 0%
CCN1CCN(C(=S)c2ccc(-c3ccccc3)cc2)CC1 | 1%
Cc1cc(=O)oc2c(C)c(OCc3ccc(F)cc3Cl)ccc12 | i
CCOc1ccc(NC(=O)COc2c(C)cc(Br)cc2C)cc1 | i
O=C(NCc1ccco1)Nc1ccc2snnc2c1 | i
CN1C(=O)CC(NCCc2ccc(S(N)(=O)=O)cc2)C1=O (stereo not given) | i
C#CCOc1c(Cl)cc(C2NC(=S)NC(C)=C2C(C)=O)cc1OCC (stereo not given) | i
Cc1ccc(S(=O)(=O)N2CCC(C(=O)Nc3cccc([N+](=O)[O-])c3)CC2)cc1 | i
O=C(CN1CCOCC1)Nc1ccc(Cl)cn1 | i
CCCCc1ccc(NC(=S)NN2CCOCC2)cc1 | i
O=C(Cc1cccc2ccccc12)Nc1ccc(C(=O)NC2CCCCC2)cc1 | i
CC1CC(C)CN(c2ncnc3c2cnn3Cc2ccc(Cl)cc2)C1 (stereo not given) | ?
CCc1ccc2oc(-c3ccc(NC(=O)c4ccc(-c5ccccc5[N+](=O)[O-])o4)cc3)nc2c1 | i
O=C(Nc1ccc2oc(-c3ccccc3)nc2c1)c1cccc(F)c1 | i
COc1ccc(C2(CNS(=O)(=O)c3ccccc3)CCOCC2)cc1 | 3%

# In another format: results already given.
CCCCc1ccc(NC(=S)NN2CCOCC2)cc1
  Mtb H37Rv: i
O=C(Cc1cccc2ccccc12)Nc1ccc(C(=O)NC2CCCCC2)cc1
  Mtb H37Rv: i

# The results go on.
SMILES | Mtb H37Rv
Cn1c(=O)n(C)c2cc(S(=O)(=O)NCCOc3ccccc3)ccc21 | i
O=C(O)c1cc(-c2ccc(F)cc2)nc2ccccc12 | i
CC1CCCC(N2CCC(N(C)Cc3ccccc3)CC2)C1 (stereo not given) | i
O=C(NCc1ccc2c(c1)OCO2)c1cccc(S(=O)(=O)N2CCCC2)c1 | i
CCN1C(=O)c2cccc3c(S(N)(=O)=O)ccc1c23 | i
Cc1cc(OCC(=O)Nc2cccc(Cl)c2)c2c3c(c(=O)oc2c1)CCC3 | 41%
Cc1ccc(S(=O)(=O)Nc2ccc(S(=O)(=O)NCCc3ccccc3)cc2)cc1 | i
CC(C)N(C(=O)Cn1c(CO)nc2ccccc21)c1ccccc1 | i
COc1ccc(OC)c(NC(=S)Nc2ccc(F)c(Cl)c2)c1 | i
CCCCOc1ccccc1C1C(C(=O)OC)=CNC=C1C(=O)OC | 1%
CCCNS(=O)(=O)c1ccc2c(c1)OCCO2 | i
CCOc1ccccc1NC(=S)NC(=O)c1cccc(I)c1 | i
Nc1nnc(SCC(=O)NC23CC4CC(CC(C4)C2)C3)s1 | i
CCn1c(SCC(=O)N2CCOCC2)nc2ccc(I)cc2c1=O | 1%
C=CCOc1c(CNc2ccc3[nH]c(=O)[nH]c3c2)cccc1OC | i

# Reprinted from the listing (4 entries):
SMILES | Mtb H37Rv
CCOc1ccccc1NC(=S)NC(=O)c1cccc(I)c1 | i
Nc1nnc(SCC(=O)NC23CC4CC(CC(C4)C2)C3)s1 | i
CCn1c(SCC(=O)N2CCOCC2)nc2ccc(I)cc2c1=O | 1%
C=CCOc1c(CNc2ccc3[nH]c(=O)[nH]c3c2)cccc1OC | i

# (continued)
SMILES | Mtb H37Rv
CC(=O)Nc1ccc(NC(=O)CN(c2ccc(Cl)c(C(F)(F)F)c2)S(C)(=O)=O)cc1 | 1%
COc1cc(C(=O)Nc2ccc(Cl)cc2Cl)cc(OC)c1OC | i
COC(=O)c1ccc(CN(C(C)C)C(C)C)o1 | i
C=CCOc1ccc(C=O)cc1I | i
O=S(=O)(NCCc1ccccc1)c1c(Cl)cccc1Cl | i
CCOc1ccc(-c2cc3cccc(OC)c3oc2=O)cc1 | i
CCOc1ccccc1NC(=O)NCc1cccs1 | i
O=C(Nc1cc(C(F)(F)F)ccc1OCC1CCCO1)c1ccc([N+](=O)[O-])cc1 (stereo not given) | i
Cc1ccccc1C(=O)N1N=C(c2ccc(Cl)cc2)CC1c1ccco1 (stereo not given) | 28%
CCOC(=O)c1sc(NC(=O)c2ccc(C(C)C)cc2)c(C(=O)OCC)c1C | i
O=C(OCC1CCCN2CCCCC12)c1ccccc1Br (stereo not given) | i
O=C(Nc1cccc(C(=O)N2CCCc3ccccc32)c1)c1ccccc1 | i
Cc1ncc([N+](=O)[O-])n1S(=O)(=O)c1ccc(Cl)cc1 | i
Cc1ccc(C)c(NC(=S)Nc2ccc(O)cc2)c1 | i
COc1ccc(OCc2nnc(SCC(=O)Nc3cc(F)ccc3C)n2-c2ccccc2)cc1 | i
COc1ccccc1C(=O)NCc1ccccc1C | i
COc1ccc(NC(=O)c2cccc(NC(=O)c3ccccc3)c2)cc1 | i
COc1ccc(S(=O)(=O)N2Cc3ccccc3CC2C(=O)NCCc2ccccc2)cc1OC (stereo not given) | i
COc1cc2c(cc1OC)C(C)N(C(=O)c1cccs1)CC2 (stereo not given) | i
Cc1ccc(CN(c2ccc(C(=O)Nc3ccccc3F)cc2)S(C)(=O)=O)cc1 | i
CCCCC1C(=O)NC(=S)N(c2ccc(C)c(C)c2)C1=O (stereo not given) | i
Cc1cc(OCC(=O)Nc2sc(Cc3ccccc3)c(C)c2C(N)=O)ccc1Cl | 1%
Cc1c(C(=O)NCCC2=CCCCC2)oc2ccccc12 | 17%
COc1ccc(NC(=O)CSc2nnc(NC(=O)c3ccccc3Br)s2)cc1 | i
CC1(C)CC(=O)C2=C(C1)Nc1ccccc1N(C(=O)c1ccccc1)C2c1ccccn1 (stereo not given) | i
CCc1cccc(C)c1NC(=O)CN(C)S(=O)(=O)c1ccc(Br)cc1 | i
O=C(CCNC(=O)OCc1ccccc1)Oc1ccc2c(=O)c(-c3ccc(Cl)cc3)coc2c1 | i
O=C1c2cccc3cccc(c23)C(=O)N1CCN1CCN(CC(O)COc2ccccc2Cl)CC1 (stereo not given) | 2.9µg/mL*
COC(=O)CCN1C(=O)/C(=C/c2cc(OC)ccc2OC)SC1=S | 2%
Cc1ccc(C(=O)N2CCN(c3ccc(NC(=O)COc4ccccc4C)cc3)CC2)cc1 | ?
Cc1c(NC(=O)c2cccc(C(F)(F)F)c2)c(=O)n(-c2ccccc2)n1C | 1%
O=C1OC2(c3ccc(Br)cc3)C(OC(=O)C23CCCC3)C12CCCC2 (stereo not given) | i
COc1ccc(Cl)cc1C(=O)Nc1ccc(N(C)C(C)=O)cc1 | i
CN1CCC(OC(=O)c2cc3ccccc3oc2=O)CC1 | i
O=C(Nc1cccc(NC(=O)c2cccs2)c1)c1cccnc1 | i
O=C(Nc1cccc([N+](=O)[O-])c1)c1cc(-c2ccc(Cl)s2)nc2ccccc12 | 34%
CC1CN(C(=S)c2ccc(Br)cc2)CC(C)O1 (stereo not given) | i
Cc1cc(-c2nn3c(C)nnc3s2)ccc1NC(=S)NC(=O)COc1ccccc1 | i
COc1ccc(-c2nc3ccccc3n2Cc2cccc(C)c2)cc1OC | 41%
C=CCn1c(CCNC(=O)Cc2ccccc2)nc2ccccc21 | i
O=C(O)C1Cc2ccccc2CN1S(=O)(=O)c1cccs1 (stereo not given) | 7%
CCCC(=O)NCc1nc2ccccc2n1CC(=O)c1ccccc1 | i
O=c1ccc2ccc(OCc3ccccc3Br)cc2o1 | i
CCc1cccc(CC)c1NC(=O)c1ccccc1C | i
O=c1c2cc3c(=O)n(Cc4ccccc4)c(=O)c3cc2c(=O)n1Cc1ccccc1 | i
CCN(CC)C(=O)c1cc2ccccc2cc1O | i
COc1ccccc1CCNC(=O)c1ccc(C)o1 | i
CN(/C(=N\S(=O)(=O)c1ccccc1)c1ccccc1)c1ccc(O)cc1 | i
Cc1noc(C)c1CSc1nc2sc3c(c2c(=O)n1-c1ccccc1)CCC3 | i
Cc1ccc(OC(=O)c2ccccc2[N+](=O)[O-])c(Br)c1 | i
Cc1cc(C)n2nc(NCc3c(F)cccc3Cl)nc2n1 | i
Cc1ccc(C(=O)NCCCc2ccccc2)c(C)c1 | 1%
COc1ccc(OCCCC(=O)Nc2ccccc2[N+](=O)[O-])cc1 | i
CN(C)c1ccc(-c2nc3ccccc3c(=O)[nH]2)cc1 | i
O=C(NCCc1ccccc1)C1CCN(S(=O)(=O)c2cc(Cl)ccc2Cl)CC1 | i
Nc1nncn1C(=O)COc1ccc(Cl)cc1Cl | 2%
O=C(NCc1cccs1)Nc1ccccc1C(F)(F)F | i
CCS(=O)(=O)Nc1c(C)cc(C)cc1C | i
CC1CN(CCCCOc2ccccc2-c2ccccc2)CC(C)O1 (stereo not given) | 8%
COc1cc(C2Nc3ccc4ccccc4c3C3=C2C(=O)CC(C)(C)C3)ccc1OCc1cc2c(cc1Cl)OCO2 (stereo not given) | 10%

# Additional records follow.
SMILES | Mtb H37Rv
Cc1ccc(N(CC(=O)Nc2ccc3c(c2)OCCO3)S(=O)(=O)c2ccccc2)cc1C | i
CN(C)CC(=O)Nc1cc(C(F)(F)F)ccc1Cl | i
CCn1c2ccccc2c2cc(NC(=S)NC(=O)c3ccc(C)cc3)ccc21 | i
COc1ccccc1NC(=O)CCCc1ccccc1 | i
CCOC(=O)C(CCOCCSc1ccc(Cl)cc1)C(=O)OCC | i
O=[S@@]1c2ccccc2Nc2cc(C(F)(F)F)ccc21 | 2%
Cc1ccccc1CN(CC(=O)NC1CCCCC1)S(=O)(=O)c1ccc(Cl)cc1 | i
CCOc1ccc(NC(=O)c2ccc(CN(c3ccccc3)S(C)(=O)=O)cc2)cc1 | i
CCOc1cc(CN2CCN(C(=O)Cc3ccccc3)CC2)ccc1OC | i
CCSc1nnc(NC(=O)CCC(=O)Nc2nnc(SCC)s2)s1 | i
FC(F)(F)c1ccc(NCC2CCCO2)nc1 (stereo not given) | i
Cc1nc(SCC(=O)O)[nH]c(=O)c1Oc1ccccc1 | i
Cc1ccc(C)c(S(=O)(=O)N2CCN(c3ccccc3F)CC2)c1 | i
CSCCC(NC(=O)c1cc(-c2ccccc2)oc1C)C(=O)O (stereo not given) | i
CCCS(=O)(=O)N1CCN(CC2CC=CCC2)CC1 (stereo not given) | i
O=C(Nc1ccon1)c1cccc(S(=O)(=O)N2CCCCCC2)c1 | i
COc1ccc(N2C(=O)C(NC(=O)C(C)(C)C)(C(F)(F)F)C3=C2CC(C)(C)CC3=O)cc1 (stereo not given) | i
O=c1[nH]cnc2nc(N3CCCCC3)[nH]c12 | 1%
CCOC(=O)c1c(NC(=O)Cc2ccc(Br)cc2)sc(C(C)=O)c1C | i
Cc1ccc(S(=O)(=O)N(C)CC(=O)Nc2cccc(F)c2)cc1 | i
O=C(O)c1ccc(NC(=S)NC(=O)c2ccc(Cl)cc2)cc1 | 28%
Cc1c(Cl)cccc1NC(=O)C1CCCN(S(C)(=O)=O)C1 (stereo not given) | i
O=C(Nc1ccc(S(=O)(=O)Nc2nccs2)cc1)C1c2ccccc2Oc2ccccc21 | i
CCCC(=O)Nc1ccc(C(=O)Nc2ccccc2C(=O)O)cc1 | 0%
CN(C(=O)c1ccc(NC(=O)c2ccco2)cc1)C1CCCCC1 | i
CCS(=O)(=O)c1nc2ccccc2n1CC(C)=O | i
COc1ccc(C)cc1NC(=O)CSc1nc2ccccc2s1 | ?
Cc1ccc(C(=O)CC2(O)C(=O)N(Cc3ccccc3)c3ccc(Br)cc32)o1 (stereo not given) | i
OC(COc1ccc2c(c1)OCO2)CN1CCN(CC(O)COc2ccc3c(c2)OCO3)CC1 (stereo not given) | i
O=c1[nH]c(=O)c2sc3nc(-c4ccccc4)cc(-c4ccc(F)cc4)c3c2[nH]1 | i
O=C(CC1NCCNC1=O)Nc1ccc(Cl)cc1 (stereo not given) | i
CCNS(=O)(=O)c1cc(C)ccc1OC | i
O=C(Nc1ccccc1Cc1ccccc1)c1ccncc1 | i
CCOC(=O)C(=O)Nc1nc2c(C)cccc2s1 | i
CCOc1ccc2nc(SCC(=O)Nc3ccc(C)cc3C)[nH]c2c1 | 4%

# 3 compounds already listed, arranged by molar mass, lowest first.
SMILES | Mtb H37Rv
CCNS(=O)(=O)c1cc(C)ccc1OC | i
O=C(Nc1ccccc1Cc1ccccc1)c1ccncc1 | i
CCOc1ccc2nc(SCC(=O)Nc3ccc(C)cc3C)[nH]c2c1 | 4%

# An excerpt, so the mix of outcomes need not match the whole.
